Screening results as filed in PubChem.
T cruzi repl – blocks replication of Trypanosoma cruzi; 300,000 compounds, 1.4% hits; inhibition, % (concentration not given with the values); T. cruzi beta-gal in NIH3T3, luminescence, 90 h;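 active = mean inhibition across valid replicates above about 55%, limit read from the data; inconclusive = mean below that limit but half or more replicates reach it; inactive = mean below it, under half of replicates reach it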;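 note: signal also drops with host cell toxicity which is not excluded here; 0% = plate median of DMSO wells and 100% = zero luminescence signal; higher percent means less beta-gal luminescence so fewer parasites; stock transfer was 50 nL into about 50 µL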
Vif A3G – HIV-1 Vif–A3G interaction blockers – biochemical, TR-FRET, GST-Vif 1-94, biotin-A3G peptide, dose response retest, primary screen (AID 1117319); TR-FRET GST-Vif / biotin-A3G peptide binding; higher % means a stronger effect; test concentration not given here; strong numbers were not always called active; inhibition, %, or IC50 in µM where a hit was titrated; 260,000 compounds, 0.57% hits;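 active = above the screen mean plus three standard deviations and confirmed in dose response; inconclusive = results disagree or hit not tested in dose response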;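 note: Vif residues 1-94 fused to GST binding biotinylated APOBEC3G peptide 110-148; 0% = full assay without inhibitor and 100% = GST in place of GST-Vif; retest series ran down from 100 µM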
MLL AF4-AF9 inh – MLL-AF4/AF9 protein interaction inhibition; P42568; AlphaScreen, biotin-AF4 peptide binding to FLAG-AF9; inhibition, % at 10 µM; 350,000 compounds, 0.47% hits;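 active = every replicate reaching a set inhibition limit, whatever the replicate mean, cut at about 25% in these data; inconclusive = mean inhibition reaches that limit but some replicates miss it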;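 note: 0% = plate neutral control median and 100% = total signal loss; the record names both 10 and 1 µM as test concentration; the first replicate is given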
Target sequence (P42568 whole entry, looked up): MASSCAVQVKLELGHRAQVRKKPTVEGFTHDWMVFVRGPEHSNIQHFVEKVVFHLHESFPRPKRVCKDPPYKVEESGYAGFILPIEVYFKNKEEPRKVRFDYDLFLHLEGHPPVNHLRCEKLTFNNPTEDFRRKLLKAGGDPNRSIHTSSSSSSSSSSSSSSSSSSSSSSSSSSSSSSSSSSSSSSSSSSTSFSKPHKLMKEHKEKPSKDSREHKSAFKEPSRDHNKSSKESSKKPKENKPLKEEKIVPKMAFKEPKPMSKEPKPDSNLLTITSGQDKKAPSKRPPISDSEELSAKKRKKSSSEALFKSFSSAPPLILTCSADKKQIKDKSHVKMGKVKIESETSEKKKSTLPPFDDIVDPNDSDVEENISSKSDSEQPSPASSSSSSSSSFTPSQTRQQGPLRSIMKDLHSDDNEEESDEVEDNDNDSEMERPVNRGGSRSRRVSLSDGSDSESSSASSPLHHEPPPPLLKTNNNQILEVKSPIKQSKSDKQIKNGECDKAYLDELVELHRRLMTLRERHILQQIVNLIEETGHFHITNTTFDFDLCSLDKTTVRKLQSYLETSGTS
LANA-H2B inh – blocks KSHV LANA binding to histone H2A/H2B | Q9QR71 | cell-free LANA-H2A/H2B peptide, fluorescence polarization | inhibition, % (concentration not given with the values) | 320,000 compounds, 0.6% hits | AID 2629; in the data active = inhibition mostly above about 10%, no sharp cut-off; inactive = mostly below about 6.7%;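 note: stock transfer was 7.5 nL into about 10 µL; 0% = median of vehicle wells and 100% = median of positive control wells; one replicate is shown; the record names a cut of 25% in any replicate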
Beta apoptosis – blocks beta cell apoptosis; protection from apoptosis, % (no concentration beside the values); 300,000 compounds, 0.8% hits; INS-1E cytokine-induced death, ATP luminescence, 48 h; percent of positive-control rescue, neutral wells zero; AID 435005;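 active = all replicates at 75% or more, or half of them and the mean; inconclusive = half reach 75% but not the mean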;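 note: 0% = cytokine-treated negative control wells and 100% = positive control rescue; higher means more ATP so stronger rescue from cytokine killing; wells of about 40 µL received 100 nL stock; the first replicate is given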
Calb FLC – affects C. albicans growth with fluconazole; C. albicans CaCi-2 (fluconazole-resistant clinical isolate) + fluconazole, Alamar Blue growth, 48 h; growth inhibition, % (test concentration not listed); 300,000 compounds, 0.57% hits; AID 1979;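 active = most replicates above 75%; inconclusive = exactly half above 75%; inactive = most below 75%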;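 note: all wells also contain fluconazole at 8 µg/ml as a sub-toxic cotreatment; 0% = median of DMSO wells and 100% = median of geldanamycin control wells; wells of about 8 µL received 7.5 nL stock; the first replicate is given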
RanGTP-Impb inh – disruptors of Ran-importin-beta complex formation – biochemical, FRET, CFP-Ran, YFP-importin-beta, homogeneous, primary screen; cell-free CFP-Ran/YFP-importin-beta FRET ratio; inhibition, % (concentration not given with the values); 300,000 compounds, 1.1% hits; AID 2216;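 active = most replicates above 15%; inconclusive = exactly half above 15%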;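 note: 0% = DMSO wells and 100% = Ran loaded with GDP instead of GTP; wells of about 40 µL received 100 nL stock; the first replicate is given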
Bfl-1 A1 inh – inhibitors of the anti-apoptotic protein A1, read as caspase activation. MEF A1-2A-BIM cells, Caspase-Glo 3/7 luminescence, 3 h; percent of clofoctol response, vehicle zero. 330,000 compounds, 0.066% hits. caspase activation, % (no concentration beside the values);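 active = over half of replicate activation scores above 10%, or exactly half above 10 with the replicate mean above 10; inconclusive = replicate mean below 10 yet half the replicates above 10; inactive = over half of replicates below 10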;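 note: wells of about 30 µL received 50 nL stock; many hits fall short of the cut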
Numbers without * were called inactive; ? = inconclusive; . = not tested or not shown; & = joins results of further samples.

SMILES	T cruzi repl	Vif A3G	MLL AF4-AF9 inh	LANA-H2B inh	Beta apoptosis	Calb FLC	RanGTP-Impb inh	Bfl-1 A1 inh
COc1ccccc1OCCCC(=O)Nc1ccc2c(c1)OCCO2	7	.	-2.0	-0.5	4	-5	-3.0	0.3
CC1(C(=O)NC2CCCCC2)CCC(=O)N1Cc1cccnc1 (stereo not drawn)	.	-2%	5.2	-1.4	-2	.	.	1.2
COCc1nnc(NC(=O)CCC2CCCCC2)s1	-14	6%	.	4.2	.	14	2.8	-1.3
CC(=O)/C=C(\C)Nc1c(C)n(C)n(-c2ccccc2)c1=O	-11	5%	-0.1	-3.1	1	-5	-0.8	-0.9
CCc1nnc(NC(=O)COC(=O)c2cc(OC)cc(OC)c2)s1	.	-1%	-1.5	-0.4	-1	.	.	-0.6
CCOC(=O)N1CCN(c2nc3ccc(C(=O)c4ccccc4)cc3n3cnnc23)CC1	19	?	2.6	-3.5	4	2	-3.4	-0.5
Cc1ccc(C)c(-c2nnc(NC(=O)COc3ccccc3)o2)c1	-9	5%	-19	-3.0	-2	?	2.3	-0.2
Cc1ccc(S(=O)(=O)NCCc2ccncc2)cc1	3	8%	.	-0.1	.	1	-3.6	0.9
O=C(c1nc[nH]c1C(=O)N1CCc2ccccc2C1)N1CCc2ccccc2C1	.	.	-0.5	3.3	-8	.	.	-0.6
CCOC(=O)NC1(NCC(C)C)Oc2ccccc2O1	-16	?	.	-1.8	-5	0	-2.6	-0.5
Cc1ccc(S(=O)(=O)N2CCC(C(=O)NCCC3=CCCCC3)CC2)c(C)c1	9	-10%	-0.5	-2.3	8	3	3.7	-0.4
O=C(c1ccccc1)N1CCN(C(=O)c2cc3ccccc3o2)CC1	-8	1%	.	2.4	8	3	0.2	-0.3
Cc1ccc(NC(=O)C(=O)NC2CCCCC2)cc1	3	2%	.	3.3	-2	26	3.8	-6.6
Cc1cccc(N/N=C/c2ccc(O)c(O)c2O)c1	1	9.5µM*	.	5.2	-4	-4	1.3	0.0
COC(=O)c1sc(=S)n(Cc2ccccc2)c1C	-16	32%	0.1	2.9	4	6	-1.7	-0.1
O=C(OCc1cc2ccccc2[nH]c1=O)c1cccc([N+](=O)[O-])c1	-8	-2%	-0.9	-0.2	-8	9	-1.1	0.5
O=C(Cc1ccc([N+](=O)[O-])cc1)N1CCN(c2ccc([N+](=O)[O-])cc2)CC1	1	0%	0.0	1.3	0	12	-4.2	0.1
Cc1ccc2[nH]c3c(=O)n(Cc4ccncc4)cnc3c2c1	-8	1%	.	2.7	0	-6	2.7	0.0
CCOC(=O)C1(CCc2ccccc2)CCN(C(=O)CCc2cnn(C)c2)CC1	3	-4%	-0.1	-3.5	1	-10	-1.5	0.2
CN(CC(=O)Nc1ccc(Cl)c(Cl)c1)C(=O)c1cccc2cccnc12	.	-10%	0.3	70*	-5	.	.	0.7
COc1ccccc1CCC(=O)OCC(=O)Nc1ccc2[nH]c(=O)[nH]c2c1	-7	6%	-19	-2.2	-2	-11	5.4	-0.1
COc1ccc([N+](=O)[O-])cc1NC(=O)CCN1CCOCC1	2	-4%	0.4	-4.0	-4	-4	-3.1	0.0
COc1ccc(C(=O)NC(=S)N2CCCCC2)cc1	0	4%	.	0.1	-7	-4	4.5	-1.0
CCc1cc(OCCOCCN(C)C)ccc1Cl	28	-5%	.	-0.2	-5	-16	-4.1	0.9
Cc1cc(C)nc(SCc2nnc(SCC(=O)OC3CCCCC3)o2)n1	-10	-5%	.	-0.7	.	5	2.8	0.6
Cc1noc(C)c1COC(=O)c1cc(S(=O)(=O)N2CCOCC2)ccc1Cl	.	1%	3.8	-0.2	-3	.	.	0.6
COc1ccc(/C=N/NC(=O)c2ccccc2)cc1CN1CCN(c2ccc(F)cc2)CC1	0	2%	.	2.9	-1	-12	-0.2	2.3
Cc1oc(-c2ccccc2F)nc1CS(=O)CC(=O)NC1CCCCC1 (stereo not drawn)	-7	.	4.4	-4.7	-4	0	?	0.3
O=C(O)C1CCCC[C@H]1C(=O)Nc1ncc([N+](=O)[O-])s1 (stereo partly drawn)	.	.	-28	-1.4	-4	.	.	0.0
CCc1ccc2[nH]c(=O)c(CN(Cc3nnnn3C3CCCC3)C3CCCCC3)cc2c1	-16	-2%&2%	9.0	-17	.	12	-3.3	0.0
CCN(CC)c1ccc(/C=N/NS(=O)(=O)c2cccc([N+](=O)[O-])c2)cc1	-1	?	.	4.9	-6	21	1.0	-2.0
NS(=O)(=O)c1ccc(CCN=Cc2ccccc2O)cc1	-10	-3%	.	-0.9	-5	-5	-0.1	0.7
CCn1c(SCC(=O)OCc2ccccc2)nnc1-c1ccco1	-11	30%	-9.9	0.6	-1	15	2.1	-0.5
Cc1cnc(C(=O)N2CCCC(C(=O)c3ccc(C(F)(F)F)cc3)C2)cn1 (stereo not drawn)	2	-8%	-1.6	-7.4	.	-16	-0.9	0.3
O=C(Nc1ccc(S(=O)(=O)NCc2cccnc2)cc1)c1ccco1	-10	?	.	1.2	11	-23	-0.4	-0.1
O=C(Cc1ccc([N+](=O)[O-])cc1)N1CCCc2ccccc21	9	.	4.0	-5.9	5	18	-1.4	0.1
N/C(=N\OC(=O)C12CC3CC(CC(C3)C1)C2)c1ccccn1	9	-7%	.	7.3	0	-9	-2.2	-0.2
COc1ccc(/C=C(/NC(=O)c2ccccc2)C(=O)N2CCC(C)CC2)cc1	17	9%	0.6	5.1	3	22	1.0	0.3
Cc1cccc(NC(=O)CSc2nc3[nH]ncc3c(=O)[nH]2)c1C	1	-8%	-3.7	6.3	-1	-5	-3.1	0.0
Cc1ccc(S(=O)(=O)N2CCCC2)cc1C(=O)NCCOc1ccccc1	.	-7%	-9.4	5.8	-8	.	.	1.3
COc1ccc(C(C(=O)NCc2ccccc2)N(Cc2cccnc2)C(=O)c2snc(C(N)=O)c2N)cc1OC (stereo not drawn)	2	11%	1.7	2.9	-5	7	4.5	0.4
COc1ccccc1N1CCN(C(=O)NCc2ccc(Cl)cc2)CC1	-7	3%	-4.6	3.2	-4	23	3.3	1.3
Cc1cc(CNC(=O)Cn2nc(C)c([N+](=O)[O-])c2C)c2ccccc2n1	3	8%	-1.2	1.8	2	3	1.6	0.9
CCCN(CC(=O)Nc1ccccc1C)C(=O)c1oc2ccc(OCC)cc2c1C	-5	.	-2.6	-16	-1	-5	.	1.0
O=[N+]([O-])c1ccc(N2CCNCC2)cc1Sc1nc2ccccc2[nH]1	5	22%	.	-0.4	-10	-42	-0.3	0.1
CCn1cc(S(=O)(=O)NCc2ccccc2Br)cn1	-1	.	-20	3.1	-5	.	.	-0.6
O=C(NC1CC2CCCC(C1)N2C(=O)N1CCCCC1)C1CCCCC1 (stereo not drawn)	-10	-7%	.	-1.8	1	-8	0.6	1.0
Nc1cnn(C2OC(CO)C(O)C2O)c(=O)n1 (stereo not drawn)	-2	-6%	-1.4	1.5	-16	-8	8.6	0.4
CSCC[C@H](N)C(=O)N1CCC(C(=O)N[C@H](C(=O)NCc2ccccc2F)C(C)C)CC1	-11	.	7.7	7.8	.	-9	-1.4	0.3
CCC(C)NC(=O)COC(=O)Cc1sc(N)nc1-c1ccc(C)cc1 (stereo not drawn)	-1	0%	0.6	-1.6	-7	2	-2.1	-0.7
Later entries.
SMILES	T cruzi repl	Vif A3G	MLL AF4-AF9 inh	LANA-H2B inh	Beta apoptosis	Calb FLC	RanGTP-Impb inh	Bfl-1 A1 inh
C/C(=N\NC(=O)CCC(=O)O)c1c(-c2ccccc2)c2cc(Br)ccc2[nH]c1=O	-7	4%	2.5	7.0	-4	4	-0.6	0.8
CCOc1ccc(NC(=S)NNC(=S)Nc2cccc(C(F)(F)F)c2)cc1	23	-1%	.	0.9	24	2	22*	0.3
CNC(=O)c1ccc(OCc2ccccc2)c(OC)c1	.	8%	.	9.4	-13	.	.	-0.1
CN1CC2=Cc3ccccc3OC23Oc2ccccc2C=C3C1	12	-1%	.	1.1	.	16	-5.0	1.2
CN(C)/C=C1\C(=O)NN=C1c1ccccc1	-10	.	0.7	-0.7	-3	-8	?	0.4
COc1ccc(CCNC(=O)C2CCN(S(=O)(=O)c3ccc(C)cc3)CC2)cc1OC	-2	.	-3.5	-1.1	1	-7	-1.4	-3.4
O=C(/C=C/c1ccc(Br)cc1)NCCCn1ccnc1	-6	.	6.6	-2.7	2	1	5.2	?
COc1cccc(N2C(=O)Nc3ccc(Br)cc3C2(O)C(=O)NCCCN(C)C)c1 (stereo not drawn)	-7	-4%	1.4	3.5	-2	1	7.6	-1.0
Cc1ccc(C)c(NC(=O)CN(C)C(=O)[C@@H](NC(N)=O)C(C)C)c1	-8	-2%	0.5	-3.6	-2	-15	1.7	0.1
O=C(Nc1cccc(Br)c1)c1ccc2nc(N3C(=O)CCC3=O)sc2c1	-12	-5%	.	1.1	-4	-11	1.4	-0.6
CSc1nnc(-c2ccccc2Cl)o1	-14	-4%	.	-1.9	-1	2	-0.9	-0.2
CCOC(=O)N1CCN(C(=O)COc2ccc(S(=O)(=O)NCC(C)C)cc2C)CC1	15	1%	.	3.4	0	-19	1.4	-0.9
CC(C)C(=O)Nc1cccc(-c2nc3ncccc3o2)c1	-7	4%	0.4	1.1	1	4	0.6	-0.2
COC(=O)c1ccc(=O)n(Cc2ccco2)c1	-14	29%	-13	-7.5	-12	-1	-1.8	-0.2
CC1=Nc2cccc3cccc(c23)N1	-21	0.53µM*	.	-0.4	9	1	4.5	0.7
COc1ccc(NC(=O)CSc2nnc(-c3cccc(O)c3)o2)cc1	-9	.	-3.9	-5.6	-3	-4	1.2	0.4
Cc1cc2n(n1)C(c1ccccc1Cl)Nc1ccccc1-2 (stereo not drawn)	-14	20%	.	-3.4	-4	36	-4.0	0.9
Cc1cccc(NCC(=O)N/N=C/c2ccc(Br)cc2)c1	-1	.	-0.6	1.0	-4	-2	2.3	0.5
COc1cccc(NC(=S)N(CCc2c(C)[nH]c3ccccc23)Cc2cccs2)c1	.	4%	3.5	-1.5	-1	.	.	0.1
Cc1cccc(OCc2nnc(NC(=O)Cc3cccs3)s2)c1	9	-16%	.	0.7	1	-5	1.5	1.3
Cc1cc(C(=O)Nc2cccc3c2O[C@H](CN(C)CC2CC2)[C@@H](C)CN([C@H](C)CO)C3=O)n(C)n1	.	.	-3.6&-2.5	5.0	-6	.	.	0.3
N#Cc1c(-c2ccccc2)ccn(Cc2ccccc2Cl)c1=O	-1	0%	.	0.2	0	10	1.2	-0.3
Cc1cc(NC(=O)c2cc(-c3ccco3)on2)no1	10	6%	.	6.5	-2	1	-0.6	-0.1
Cc1ccn2c(C(=O)c3ccc(Cl)cc3)cnc2c1	6	-3%	.	-5.9	4	6	-0.7	0.9
C=CCOc1ccc(CN(C)CC(=O)Nc2ccc3c(c2)CCC3)cc1	37	.	-0.6	2.8	-5	-27	-2.7	-0.3
O=C(Nc1ccc(N2CCCCC2)cc1)c1cc(S(=O)(=O)N2CCOCC2)ccc1F	23	-5%	2.3	-1.5	4	7	-0.4	3.0
CCN(C(=O)COC(=O)c1nc(Cl)ccc1Cl)C1CCS(=O)(=O)C1 (stereo not drawn)	-5	-9%	-3.3	1.0	10	10	4.8	0.1
